NS1 function inh: qHTS Assay for Inhibitors of Influenza NS1 Protein Function; AID 2326, 2010; Potency, µM (doses to about 46.1 µM), without a hit: at the highest dose activity, positive = more growth; S. cerevisiae slowed by influenza A NS1, growth recovery by OD600; 270,000 tested, 0.4% active; note: actives are rising curves; nearly all actives have a fitted effect of over 50% in size
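Growth recovery, yeast-based: influenza A NS1 expressed in S. cerevisiae causes slow growth, and suppressors are detected by OD600. The parent strain without NS1 is used as positive control.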
MARV entry inh: qHTS for inhibitors of binding or entry into cells for Marburg Virus; Marburg virus pseudotyped entry inhibition, cell reporter; control for the full effect not named in the record; about a third of the inactives were read at about 46 µM; Potency, µM (highest dose often 37.8 µM), inactives show at the highest dose activity change, negative = inhibition, usual class: inhibitors; 300,000 tested, 1.8% active; active = well fitted inhibition curve with a large enough effect; inconclusive = small, poorly fitted or top-dose-only effect, or effect the other way; inactive = flat fitted curve, though single readings scatter; tested in HEK293 cells; about a fifth of its hits are not listed in these tables; note: % is set by controls: 0 for no effect and ±100 for the full control effect; luciferase read-out
Cruzain Triton: qHTS Assay for Promiscuous and Specific Inhibitors of Cruzain (with detergent). Cruzipain (Trypanosoma cruzi), P25779. purified cruzain, Z-FR-AMC fluorescence, 0.01% Triton. Potency, µM, without a hit: max response, negative = inhibition, most hits filed as inhibitors. 200,000 tested, 0.43% active; active = well fitted curve in the direction sought with a large enough effect; inconclusive = small, poorly fitted or top-dose-only effect, or another doubt; inactive = no such curve, though single readings can be large; an effect the other way counts as inactive or inconclusive;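 note: plate controls were neutral wells for no effect and buffer without enzyme for full effect; nearly all actives have a fitted effect of over 40% in size; top concentration of the series not given in the record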
Target sequence (P25779 123-467 limits assumed): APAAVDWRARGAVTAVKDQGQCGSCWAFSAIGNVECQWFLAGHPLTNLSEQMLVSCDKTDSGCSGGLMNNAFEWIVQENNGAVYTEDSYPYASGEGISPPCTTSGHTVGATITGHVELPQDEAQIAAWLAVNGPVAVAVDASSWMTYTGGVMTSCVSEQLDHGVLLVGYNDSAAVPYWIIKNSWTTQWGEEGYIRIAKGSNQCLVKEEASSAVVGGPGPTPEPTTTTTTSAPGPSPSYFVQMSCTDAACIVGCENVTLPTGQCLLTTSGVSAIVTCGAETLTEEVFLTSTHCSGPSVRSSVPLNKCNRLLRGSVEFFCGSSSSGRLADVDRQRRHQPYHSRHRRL
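Cysteine protease activity tested under reducing, mildly acidic conditions (100 mM sodium acetate pH 5.5, 5 mM DTT) plus 0.01% Triton X-100. Cruzain 1.5 nM; substrate Z-FR-AMC 2 uM; 15 min compound preincubation at room temperature.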
StopGo reporter: High Throughput Screening for Foot and Mouth Disease Virus Antivirals; AID 1159524, 2015; human cells with a luciferase reporter of 2A StopGo recoding; control for the full effect not named in the record; Potency, µM (highest dose often 57.9 µM), for the others: top-dose signal change, negative = less light; 410,000 tested, 1.2% active; active = well fitted falling curve with a large enough effect; inconclusive = small, poorly fitted or top-dose-only effect; inactive = no such curve, though single readings can be large or run the other way; tested in HEK293T cells; note: % is set by controls: 0 for no effect and ±100 for the full control effect; nearly all actives have a fitted effect of over 45% in size; luciferase light after 4 h
SARS PLP yeast: qHTS of Yeast-based Assay for SARS-CoV PLP; Potency, µM (doses to about 32.9 µM), for inactives: at the highest dose activity, positive = growth rescue; AID 485353, 2010; 330,000 tested, 0.19% active; S. cerevisiae expressing SARS-CoV PLpro, growth rescue; control for the full effect not named in the record; note: 0% is about no effect; nearly all actives have a fitted effect of over 55% in size; growth read by luminescence after 48 h
Cruzain noTriton: qHTS Assay for Promiscuous and Specific Inhibitors of Cruzain (without detergent); Cruzipain (Trypanosoma cruzi), P25779; purified cruzain, Z-FR-AMC fluorescence, no detergent; Potency, µM, inactives show max response, negative = inhibition, most hits filed as inhibitors; 200,000 tested, 2.3% active; active = well fitted curve in the direction sought with a large enough effect; inconclusive = small, poorly fitted or top-dose-only effect, or another doubt; inactive = no such curve, though single readings can be large; an effect the other way counts as inactive or inconclusive;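 note: plate controls were enzyme without inhibitor for no effect and buffer without enzyme for full effect; nearly all actives have a fitted effect of over 40% in size; top concentration of the series not given in the record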
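Purified cruzain at 1.5 nM, pre-incubated 15 min with compound at room temperature in 100 mM sodium acetate pH 5.5, 5 mM DTT, 0.00005% Triton X-100. Reaction started with 2 uM Z-FR-AMC; AMC fluorescence increase over 60 s gives rate.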
RE007 growth inh: qHTS Assay for Inhibitors of the HIV-1 protein Vpr; S. pombe RE007 Vpr strain, BacTiter-Glo ATP luminescence, 24 h; control for the full effect not named in the record; Potency, µM (series often up to 92.2 µM), inactives show top-dose activity change, negative = less growth; 360,000 tested, 0.21% active; AID 651644, 2012; active = well fitted falling curve with a large enough effect; inconclusive = small, poorly fitted or top-dose-only effect; inactive = no such curve, though single readings can be large or run the other way;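 note: % is set by controls: 0 for no effect and ±100 for the full control effect; nearly all actives have a fitted effect of over 50% in size; the assay follows cell death caused by Vpr and the record does not say whether a fall means rescue or toxicity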
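Fission yeast strain RE007, carrying one chromosomally integrated HIV-1 vpr copy, was seeded at OD 0.01 in PMG+AL medium with 23 nL pinned compound. After 24 h at 30 °C and 99% humidity, viability was read by BacTiter-Glo luminescence.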
Lassa entry inh: qHTS for Inhibitors of binding or entry into cells for Lassa Virus; Lassa virus pseudotype entry inhibition, cell reporter; control for the full effect not named in the record; Potency, µM (series often up to 37.9 µM), for the others: at the highest dose activity change, negative = inhibition, most hits filed as inhibitors; 300,000 tested, 1.2% active; AID 540256, 2011; active means well fitted inhibition curve with a large enough effect; inconclusive means small, poorly fitted or top-dose-only effect, or effect the other way; inactive means flat fitted curve, though single readings scatter; tested in HEK293 cells; note: % is set by controls: 0 for no effect and ±100 for the full control effect; nearly all actives have a fitted effect of over 50% in size; luciferase read-out
* hit, by the source's call; ? = inconclusive; nt = not tested or not shown; & = joins results of further samples; [ ] = another dose, or the depositor's remark. Unless noted, calls come from the whole dose curve; as a rule, active means well fitted rising curve with a large enough effect; inconclusive means small, poorly fitted or top-dose-only effect; inactive means no such curve, though single readings can be large or run the other way. Potency is the fitted concentration of half-maximal effect.

SMILES	NS1 function inh	MARV entry inh	Cruzain Triton	StopGo reporter	SARS PLP yeast	Cruzain noTriton	RE007 growth inh	Lassa entry inh
CC(C)(C)OC(=O)Nc1ccc([C@@H](NC(=O)OC(C)(C)C)C(=O)OC(C)(C)C)cc1	nt	-6.9%	nt	-9.0%	2.8%	nt	-1.3%	nt
CCOC(=O)C1CCN(C(=O)c2ccc(C)c(NC(=O)c3nsc4ccccc34)c2)CC1	nt	nt	-2.4%	-16.0%	nt	4.2%	nt	-21.3%[46.1 µM]
O=C1C(N2CCOCC2)=C(n2nnc3ccccc32)C(=O)c2ccccc21	-21.0%	7.94µM*	-4.8%	10µM*	-35.1%	-6.9%	-13.1%	?
CC(C)CC(NC(=O)C1CCC(C)CC1)C(=O)NCc1ccccn1 (stereo not given)	-3.7%	-4.5%	-0.6%	-15.3%	-6.0%	-1.4%	-9.3%	-15.1%
CC(=O)c1ccc(Oc2cc(C)nc(-n3nc(C)cc3C)n2)cc1	-80.6%	?	0.9%	-18.2%	-5.5%	11.6%	0.0%	?
Cn1c(=O)c2c3c(sc2n2cnnc12)CCC3	2.0%	2.6%	3.4%	-8.0%	1.3%	2.8%	0.0%	9.0%
c1cc2c3c(cccc3c1)NC(c1ccc3c(c1)OCO3)N2	-1.8%	nt	nt	23.9%	-1.3%	nt	3.7%	nt
COc1ccc(NS(=O)(=O)c2cc(OCC(N)=O)c(C)cc2Cl)cc1	-5.8%	?	-0.8%	-6.5%	-1.4%	-4.1%	-2.9%	-3.1%
Cc1cc(-c2nc(C)c(C(=O)NNS(=O)(=O)c3ccc(Cl)cc3Cl)s2)no1	2.2%	1.8%[46.1 µM]	nt	10.9%	-0.4%	nt	6.4%	-17.2%[46.1 µM]
Cc1ccc(-c2nc(N3CCN(c4ccccc4Cl)CC3)c3ccccc3n2)cc1	nt	nt	-0.7%	-18.2%	nt	-4.6%	nt	-4.0%[46.1 µM]
CCOC(=O)C1CCCN(C(=O)c2cc(S(=O)(=O)Nc3ccccc3OC)ccc2C)C1 (stereo not given)	-3.2%	12.7%[46.1 µM]	nt	21.7%	3.1%	nt	-3.7%	?
COc1cc(/C=C/C(=O)OCC(=O)Nc2cc(S(=O)(=O)N3CCCCC3)ccc2C)ccc1O	?	2.5%	-8.1%	?	8.7%	-24.0%	-10.9%	-4.0%
S=C1NCCc2ccc(Cl)cc2C1c1ccccc1Cl (stereo not given)	26.0%	?	?	-7.7%	-58.5%	?	-11.4%	4.4%
S=c1[nH]nc(COc2ccc(Cl)cc2)o1	-7.8%	-3.7%	6.1%	-12.5%	-4.0%	-2.8%	-6.7%	-18.6%
O=P(CCCO)(Cc1ccccc1)Cc1ccccc1	4.5%	?	nt	-10.3%	2.3%	nt	-1.9%	-6.9%[46.1 µM]
CSCCC(=O)N1CCN(CC(=O)N2CCCC2)CC1	-0.8%	-0.2%[46.1 µM]	nt	0.7%	3.3%	nt	12.5%	-0.7%
O=C(Cc1ccc(S(=O)(=O)N2CCCC2)s1)Nc1nc2c(s1)CCCC2	-8.9%	-19.0%&-19.0%	-16.6%	10.3%	-5.8%	20µM*	-10.3%	-25.3%
COc1cc(NC(=O)CCC(=O)OCCCC(F)(F)C(F)(F)F)nc(OC)n1	6.9%	0.7%[46.1 µM]	nt	-15.4%	-0.9%	nt	12.3%	-12.7%[46.1 µM]
O=S(=O)(c1ccccc1F)N1CCC(c2nc3ccccc3[nH]2)CC1	3.9%	5.0%[46.1 µM]	nt	-18.9%	15.7%	nt	-16.8%	6.2%
COc1ccc(/C=C2\SC(=S)N(CCCC(=O)Nc3ccccc3C(=O)O)C2=O)cc1OC	-2.0%	nt	nt	-16.2%	1.6%	nt	-3.3%	nt
COc1ccc(N(C(=O)c2cccnc2)S(=O)(=O)c2ccc(Cl)cc2)cc1	-10.5%	nt	nt	4.7%	?	nt	-8.4%	nt
COc1ccc(S(=O)(=O)N2CCC(C(=O)NC3CC(C)(C)NC(C)(C)C3)CC2)cc1	-10.9%	7.2%[46.1 µM]	nt	-11.5%	-3.6%	nt	1.9%	-0.6%[46.1 µM]
Cc1cc(C2CC(=O)Nc3ccccc3S2)c(C)s1 (stereo not given)	-1.5%	nt	nt	-19.8%	1.5%	nt	22.9%	nt
COc1ccc(Cc2nc3c4cnn(-c5ccccc5Br)c4ncn3n2)cc1	nt	19.0%[46.1 µM]	-1.6%	-27.7%	nt	0.4%	nt	-6.8%[46.1 µM]

Single records, as listed above.
COc1ccc(NS(=O)(=O)c2cc(OCC(N)=O)c(C)cc2Cl)cc1 reads NS1 function inh = -5.8%; MARV entry inh = ?; Cruzain Triton = -0.8%; StopGo reporter = -6.5%; SARS PLP yeast = -1.4%; Cruzain noTriton = -4.1%; RE007 growth inh = -2.9%; Lassa entry inh = -3.1%
CC(=O)c1ccc(Oc2cc(C)nc(-n3nc(C)cc3C)n2)cc1 reads NS1 function inh = -80.6%; MARV entry inh = ?; Cruzain Triton = 0.9%; StopGo reporter = -18.2%; SARS PLP yeast = -5.5%; Cruzain noTriton = 11.6%; RE007 growth inh = 0.0%; Lassa entry inh = ?

The list goes on.
SMILES	NS1 function inh	MARV entry inh	Cruzain Triton	StopGo reporter	SARS PLP yeast	Cruzain noTriton	RE007 growth inh	Lassa entry inh
CCN1C(=O)C(O)(C2COC(C)(C)CC2=O)c2ccccc21 (stereo not given)	-1.7%	19.4%	4.5%	-17.3%	-2.3%	-1.3%	-0.1%	8.3%
COc1ccc(C=O)cc1CSc1ncccc1C(=O)O	-1.6%	?	nt	-9.4%	0.6%	nt	-15.1%	8.7%
COc1cc(Cl)c(C)cc1NC(=O)CCn1c(=O)c2cccn2c2cccnc21	nt	nt	0.0%	-3.4%	nt	9.0%	nt	5.5%[46.1 µM]
COc1cc2[nH]c(C(=O)N3CC(C)OC(C)C3)cc2c(OC)c1OC (stereo not given)	2.4%	19.7%[46.1 µM]	nt	-28.2%	0.5%	nt	13.8%	11.2%
CCc1c(C)nc2nncn2c1Nc1ccc(C(C)C)cc1	nt	?	-3.6%	-27.3%	nt	4.4%	nt	-8.8%[46.1 µM]
Cn1c(C(=O)N2CCN(c3ccc([N+](=O)[O-])cc3)CC2)cc2c(=O)[nH]c3ccccc3c21	nt	?	nt	-19.8%	1.3%	nt	-3.0%	-13.5%[46.1 µM]
Nc1nonc1-c1nc2ccccc2n1CC(=O)Nc1cccc(Cl)c1Cl	nt	nt	-0.5%	-23.0%	nt	2.1%	nt	?
COc1ccc(NC(=O)CSc2nnc(-c3ccoc3C)n2CC2CCCO2)cc1 (stereo not given)	2.0%	5.0%[46.1 µM]	1.4%	11.5%	9.4%	7.0%	4.6%	-17.9%
Nn1c(SCC(=O)Nc2ccc3c(c2)OCCO3)nnc1-c1ccccn1	7.1%	11.1%	3.1%	-10.1%	nt	13.1%	15.6%	-13.9%
CC(=O)Nc1ccc(S(=O)(=O)NC2CC(=O)N(c3ccc(C)c(C)c3)C2)cc1 (stereo not given)	nt	7.3%	nt	6.9%	4.7%	nt	6.6%	3.1%
CSCCC(NS(=O)(=O)c1ccccc1F)C(=O)NCCCn1nc(C)cc1C (stereo not given)	nt	-6.4%	nt	12.9%	-2.7%	nt	-0.1%	-3.8%
O=C(COc1coc(CN2CCN(c3ccccc3)CC2)cc1=O)Nc1ccccc1	nt	1.3%	nt	-20.5%	-4.8%	nt	-19.0%	-15.9%
CC(=O)Nc1ccc(NC(=O)CC2SC(=O)N(CC(=O)c3ccccc3)C2=O)cc1 (stereo not given)	-11.1%	-12.4%[46.1 µM]	nt	-5.5%	-2.8%	nt	17.4%	0.9%
COC(=O)C1=C(CS(=O)(=O)c2cc(Cl)ccc2OC)NC(=O)NC1c1ccccc1 (stereo not given)	nt	-5.1%[46.1 µM]	-0.3%	5.5%	nt	-2.0%	nt	6.3%[46.1 µM]
Cc1cc(/C=N/NC(=O)c2cccc([N+](=O)[O-])c2)c(C)n1-c1ccc(Cl)cc1Cl	7.8%	?	-5.4%	0.0%	-10.7%	?	1.7%	?
COc1ccc(C(=O)N2CCN(C(=O)COc3ccccc3)CC2)cc1OC	nt	1.5%[46.1 µM]	-2.4%	-13.7%	nt	0.5%	nt	22.7%[46.1 µM]
COc1ccc(CNC(=O)C2CCCN(S(=O)(=O)c3cnc[nH]3)C2)cc1 (stereo not given)	1.4%	nt	3.3%	-23.5%	-3.1%	-10.9%	-4.6%	nt
COC(=O)N(NC(=O)C(O)(C(C)C)C(C)C)c1ccccc1	-6.3%	3.1%[46.1 µM]	nt	-4.7%	0.2%	nt	20.2%	-3.5%
CC(=O)N1CCN(c2ccc(NC(=O)c3cc(Cl)ccc3Cl)cc2)CC1	-7.5%	nt	nt	7.1%	-7.5%	nt	12.6%	nt
Cc1ccc(C(c2nnnn2Cc2cccs2)N2CCN(C(=O)c3ccco3)CC2)cc1 (stereo not given)	-9.1%	?	-4.9%	17.6%	-4.4%	15.1%	-10.3%	?
COC(=O)c1[nH]c2ccc(C)cc2c1NC(=O)CN1CCC(C)CC1	-0.5%	3.6%	1.6%	?	0.8%	-0.8%	10.4%	-26.4%
CCOc1cc(N2CCOCC2)c(OCC)cc1NC(=O)C(C)Oc1ccccc1 (stereo not given)	nt	10.7%[46.1 µM]	nt	?	-11.7%	nt	-12.4%	?
Cn1cnnc1SCC(=O)NCCC1=CCCCC1	nt	?	nt	3.8%	-0.1%	nt	-8.5%	25.8%

Compound activity: PubChem BioAssay, National Center for Advancing Translational Sciences (NCATS)
